Screens deposited in PubChem BioAssay by Broad Institute.
DUX4 txn inh: blocks DUX4-driven transcriptional activation. 293T-iDUX4 ZSCAN4-Gaussia luciferase reporter, 24 h; active compounds read low. activity change, negative = inhibition, % (no concentration beside the values). 37,000 tested, 0.8% active. AID 1224904;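 active means -10% or lower and over 25 points stronger than a control reporter; inconclusive means -10% or lower with a smaller gap; inactive means above -10%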;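 further: 0% = median of neutral control wells and -100% = median of positive control wells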
DUX4 txn inh difference: also measured in DUX4 txn inh; calls as there; Gaussia minus Italica difference, %; measured here: selective DUX4 reporter inhibition;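 worked out from the two reporters; negative = selective loss of the DUX4 reporter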
DUX4 txn inh control: also measured in DUX4 txn inh; calls as there; activity change, negative = inhibition, %; measured here: Italica tet-on control reporter;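 0 = neutral control and -100 = positive control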
Starred values were filed as active, the others as inactive; u = inconclusive; x = not tested or not shown. These rows are one share of the data, so the mix of outcomes need not match the whole.

SMILES	DUX4 txn inh	DUX4 txn inh difference	DUX4 txn inh control
CC(C)NC(=O)N1CC(=O)N2[C@H](C1)[C@@H](c1ccc(C#CCN(C)C)cc1)[C@@H]2CO	12	6	5.9
COC(=O)C[C@@H]1CC[C@@H]2[C@@H](COc3ccc(NC(=O)c4cscn4)cc3C(=O)N2C)O1	-2	2	-3.7
COc1cccc(CN(C)C[C@H]2OCc3cnnn3CCCC(=O)N([C@@H](C)CO)C[C@H]2C)c1	-2	-6	4.1
O=C(NCCc1ccncc1)[C@H]1N[C@H]2c3ccc(/C=C/c4ccccc4)c(=O)n3C[C@H]2[C@@H]1CO	0	-1	0.9
COc1cccc(CN(C)C[C@@H]2OCc3cnnn3CCCC(=O)N([C@@H](C)CO)C[C@@H]2C)c1	-5	-4	-1.0
COc1cccc(-c2ccccc2[C@H]2[C@@H](C#N)N(C(=O)Cc3ccccc3)[C@@H]2CO)c1	1	10	-8.7
COc1ccc2c3c(n(C)c2c1)[C@H](CO)NCC31CN(C(=O)Nc2ccc3c(c2)OCO3)C1	4	-2	6.0
O=C(C[C@@H]1C=C[C@@H](NC(=O)c2ccc3c(c2)OCO3)[C@H](CO)O1)NC1Cc2ccccc2C1	0	-4	4.2
CO[C@H]1CN(C)C(=O)c2ccc(NC(=O)C3CCC3)cc2OC[C@H](C)N(Cc2ccncc2)C[C@@H]1C	2	2	0.0
CCNC(=O)C[C@H]1CC[C@H]2[C@H](COc3ccc(NC(=O)C4CCCCC4)cc3C(=O)N2C)O1	3	2	0.7
C[C@@H]1CN([C@@H](C)CO)C(=O)CCCn2cc(nn2)CO[C@@H]1CN(C)S(=O)(=O)c1ccc(Cl)cc1	-2	-3	1.1
O=C(C[C@H]1C=C[C@@H](NC(=O)Nc2ccc3c(c2)OCO3)[C@@H](CO)O1)NCCCN1CCOCC1	6	1	4.8
COc1ccccc1CNC(=O)C[C@H]1CC[C@@H]2[C@H](COC[C@H](O)CN2C(=O)Nc2ccc(C(F)(F)F)cc2)O1	-1	0	-1.4
O=C(C[C@H]1CC[C@H]2[C@@H](COC[C@@H](O)CN2C(=O)Nc2ccc(Cl)c(Cl)c2)O1)NC1CCC1	6	4	1.8
O=C(NCc1ccncc1)[C@@H]1[C@@H](CO)[C@@H]2Cn3c(ccc(-c4cccnc4)c3=O)[C@@H]2N1C(=O)C1CC1	4	2	1.9
O=C(C[C@H]1CC[C@@H]2[C@H](COC[C@H](O)CN2CCC(F)(F)F)O1)NCc1ccc(Oc2ccccc2)cc1	u	x	x
O=C(C[C@@H]1CC[C@@H]2[C@H](COC[C@@H](O)CN2S(=O)(=O)c2cccc(F)c2)O1)Nc1ccccc1	20	20	0.1
CC=Cc1ccc2n(c1=O)C[C@H]1[C@H](CO)[C@@H](C(=O)NCC3CCCCC3)N(C(C)=O)[C@@H]21 (mixture of isomers)	2	1	1.1
CCCC#Cc1ccc([C@H]2[C@@H](CO)N3C(=O)CN(C(=O)NCCC)C[C@@H]23)cc1	2	-1	3.3
COc1ccc2c3c(n(C)c2c1)[C@H](CO)N(C(=O)NC1CCCC1)CC31CCN(C(C)=O)CC1	6	10	-4.0
COc1cccc(CNC(=O)C[C@H]2CC[C@H]3[C@@H](COc4ccc(NC(=O)c5cccs5)cc4C(=O)N3C)O2)c1	0	-3	2.9
C[C@@H]1CN([C@H](C)CO)C(=O)c2cccc(NC(=O)Nc3ccc(F)cc3)c2O[C@H]1CN(C)Cc1ccc(-c2ccccc2)cc1	7	7	-0.5
C[C@@H](NC(=O)C[C@@H]1CC[C@@H]2[C@H](COC[C@H](O)CN2C)O1)c1ccccc1	6	2	3.8
O=C(C[C@@H]1CC[C@H]2[C@@H](COC[C@@H](O)CN2C(=O)Nc2ccc(Cl)c(Cl)c2)O1)NCc1ccccc1	-5	-4	-1.0
Cc1ccccc1S(=O)(=O)N1[C@H](C#N)[C@@H](c2ccc(C#CC3CC3)cc2)[C@@H]1CO	1	1	-0.2
O=C(c1ccccc1)N1CC[C@@H]2[C@H](CO)Nc3ccc(-c4ccc(F)cc4)cc3[C@@H]21	u	x	x
Cc1noc(C)c1S(=O)(=O)Nc1ccc2c(c1)C(=O)N([C@H](C)CO)C[C@@H](C)[C@H](CN(C)C(=O)c1ccncc1)OCCCC[C@@H](C)O2	0	3	-3.0
O=C(NC[C@@H]1N[C@@H](CO)[C@H]1c1ccccc1)C1CC1	-3	-5	2.1
C[C@@H]1CN([C@H](C)CO)C(=O)c2cccc(NC(=O)c3ccno3)c2O[C@H]1CN(C)S(=O)(=O)c1cccs1	-3	-2	-0.2
O=C(c1ccncc1)N1CC2(C1)[C@@H](c1ccccc1)[C@@H](CO)N2CC1CCOCC1	7	2	4.2
C[C@H]1CCCCO[C@H](CN(C)S(=O)(=O)c2cn(C)cn2)[C@@H](C)CN([C@@H](C)CO)C(=O)c2cc(NC(=O)Nc3cccc4ccccc34)ccc2O1	3	5	-1.9
Cc1ccc(-c2ccc(C3[C@@H]4CN(C(=O)Nc5ccc(C(F)(F)F)cc5)C[C@H]3N4)cc2)cc1 (some centres not stated)	u	-12	8.7
CCCNC(=O)N1CC2(C1)[C@@H](c1ccccc1)[C@@H](CO)N2Cc1ccc(F)cc1	-4	-1	-2.6
CC(=O)N(C)C[C@@H]1[C@H](c2ccc(-c3cccc(C#N)c3)cc2)[C@H](CO)N1C(C)=O	-4	-2	-2.0
O=C(Nc1nccs1)[C@@H]1[C@@H](CO)[C@@H]2Cn3c(ccc(-c4cccnc4)c3=O)[C@@H]2N1CC1CCCC1	u	x	x
CCS(=O)(=O)Nc1ccc2c(c1)C(=O)N(C)[C@@H]1CC[C@H](CC(=O)NCc3ccccc3F)O[C@H]1CO2	-1	2	-2.6
C[C@@H]1CN([C@@H](C)CO)C(=O)c2ccccc2-c2ccccc2CO[C@H]1CN(C)S(=O)(=O)c1ccc(C#N)cc1	12	8	3.7
CCC(=O)N[C@@H]1CC[C@@H](CCNC(=O)Nc2ccc(F)cc2)O[C@@H]1CO	0	-1	1.3
C/C=C/c1ccccc1[C@@H]1[C@@H](C#N)N(c2nc(CC)cs2)[C@H]1CO	10	9	1.7
O=C(C[C@H]1CC[C@H]2NC[C@H](O)COC[C@@H]2O1)N1CCc2ccccc2C1	5	-1	5.2
CCC(=O)N1CCCCN2[C@H](CO)[C@H](c3ccc(C#Cc4ccccc4)cc3)[C@H]2C1	-10	-8	-1.7
CC(C)CC#Cc1ccc([C@@H]2[C@@H](CO)N3C(=O)CN(C(=O)c4cnccn4)C[C@H]23)cc1	16	10	6.5
Cc1ccccc1S(=O)(=O)N1[C@H](C#N)[C@H](c2ccc(-c3ccccc3)cc2)[C@@H]1CO	4	-1	4.8
CC(C)C[C@@H]1COCc2cn(nn2)CC[C@@H](Cc2ccccc2)C(=O)N1	0	3	-2.4
CCCNC(=O)N1[C@H](C#N)[C@@H](c2ccccc2-c2ccccc2F)[C@H]1CO	1	-4	4.6
CO[C@H](CN(C)C(=O)c1ccccc1F)[C@@H](C)CN([C@@H](C)CO)S(=O)(=O)c1ccc(C)cc1	0	-2	1.2
Cc1ccc(S(=O)(=O)N(C)C[C@H]2Oc3ncc(Br)cc3C(=O)N([C@@H](C)CO)C[C@@H]2C)cc1	-5	-6	1.1
CCCNC(=O)[C@H]1[C@H](CO)[C@H]2Cn3c(ccc(C4=CCCCC4)c3=O)[C@H]2N1C(=O)c1cnccn1	13	12	1.4
CC(C)NC(=O)NCC[C@@H]1CC[C@@H](NC(=O)c2ccc(F)cc2)[C@H](CO)O1	6	4	1.7
C[C@@H]1CN([C@@H](C)CO)C(=O)c2c(c3ccccc3n2C)-c2ccccc2CO[C@H]1CN(C)C(=O)C1CC1	8	-7	15
O=C(O)C[C@@H]1CC[C@@H]2[C@H](COC[C@@H](O)CN2S(=O)(=O)c2ccc(Oc3ccccc3)cc2)O1	5	4	1.6
C[C@@H]1CN([C@H](C)CO)C(=O)c2cc(N(C)C)ccc2O[C@@H](C)CCCCO[C@@H]1CN(C)C(=O)CCCN(C)C	6	14	-8.3
CC(=O)N1CC[C@@H]2[C@@H](CO)Nc3ccc(C#Cc4ccccc4F)cc3[C@@H]21	4	6	-2.0
COc1ccc2c3c(n(C)c2c1)[C@@H](CO)N(C(=O)Cc1ccccc1)CC31CN(C(C)=O)C1	14	9	5.0
Cc1cccc(-c2ccccc2[C@H]2[C@@H](C#N)N(c3ncc(-c4ccccc4)s3)[C@@H]2CO)c1	u	x	x
COc1ccc2c3c([nH]c2c1)[C@H](CO)N(Cc1ccccn1)CC31CN(C(=O)c2ccccn2)C1	6	-3	9.7
CCCNC(=O)C[C@@H]1CC[C@H]2[C@@H](COc3ccc(NC(=O)c4cc(F)cc(F)c4)cc3C(=O)N2C)O1	-4	-6	2.1
CN(C)C(=O)c1cccc(-c2ccc3c(c2)[C@H]2[C@H](CCN2C(=O)Cc2ccccc2)[C@H](CO)N3)c1	u	x	x
CC=Cc1ccc2n(c1=O)C[C@@H]1[C@@H](CO)[C@H](C(=O)NCC)N(Cc3ccccc3Cl)[C@H]21 (mixture of isomers)	-2	1	-2.9
CN(C)C(=O)c1ccc(-c2ccc([C@@H]3[C@@H](CO)N4C(=O)CN(C(=O)C5CC5)C[C@@H]34)cc2)cc1	6	6	0.0

Single values from above:
`CCCNC(=O)C[C@@H]1CC[C@H]2[C@@H](COc3ccc(NC(=O)c4cc(F)cc(F)c4)cc3C(=O)N2C)O1` @ DUX4 txn inh control: 2.1
`CC=Cc1ccc2n(c1=O)C[C@@H]1[C@@H](CO)[C@H](C(=O)NCC)N(Cc3ccccc3Cl)[C@H]21` (mixture of isomers) @ DUX4 txn inh control: -2.9
`COc1ccc2c3c([nH]c2c1)[C@H](CO)N(Cc1ccccn1)CC31CN(C(=O)c2ccccn2)C1` @ DUX4 txn inh control: 9.7

Next section:
SMILES	DUX4 txn inh	DUX4 txn inh difference	DUX4 txn inh control
O=S(=O)(c1ccc(F)cc1)N1C[C@@H]2[C@H](c3ccccc31)[C@H](CO)N2Cc1ccc2c(c1)OCO2	4	2	1.4
O=C(NC1CCC1)[C@@H]1[C@@H](CO)[C@@H]2Cn3c(ccc(C4=CCCC4)c3=O)[C@H]1N2C(=O)c1ccccc1	-6	-6	0.4
O=C(c1ccncc1)N1CC2(C1)[C@@H](c1ccccc1)[C@@H](CO)N2Cc1ccccn1	-3	-9	5.8
CCC(=O)N1[C@H](CO)[C@H](c2ccc(-c3ccccc3OC)cc2)[C@@H]1CNC(C)=O	-7	-4	-2.9
CCCNC(=O)C[C@@H]1CC[C@H]2[C@@H](COC[C@@H](O)CN2CC2CCCCC2)O1	7	7	-0.3
O=C(C[C@H]1CC[C@@H]2[C@H](COC[C@H](O)CN2Cc2ccccc2F)O1)N[C@H]1CCN(Cc2ccccc2)C1	u	x	x
O=C([C@H]1[C@H](CO)[C@H]2Cn3c(ccc(C4=CCCCC4)c3=O)[C@@H]1N2Cc1nccs1)N1CCOCC1	1	2	-1.3
CC=Cc1ccc2n(c1=O)C[C@H]1[C@H](CO)[C@@H](C(=O)NC3CCC3)N(CCC(F)(F)F)[C@@H]21 (mixture of isomers)	-6	-4	-1.3
O=C(c1ccc(F)cc1)N1CC[C@@H]2[C@H]1c1cc(C3=CCCCC3)ccc1N[C@@H]2CO	1	30	-29
CO[C@H]1CN(C)C(=O)c2ccc(NC(C)=O)cc2OC[C@H](C)N(Cc2cccnc2)C[C@@H]1C	-3	0	-2.5
CC(C)CC#Cc1ccc([C@@H]2[C@H](CO)N3C(=O)CN(S(C)(=O)=O)C[C@@H]23)cc1	6	1	5.2
CO[C@H]1CN(C)C(=O)c2ccc(NS(=O)(=O)c3ccccc3)cc2OC[C@@H](C)N(C(=O)NC(C)C)C[C@@H]1C	2	-1	2.6
CCC(=O)N1CC2(C1)[C@H](c1ccccc1)[C@@H](CO)N2CC1CCCC1	3	-1	4.4
CC=Cc1ccc2n(c1=O)C[C@H]1[C@H](CO)[C@@H](C(=O)Nc3ccccc3)[C@@H]2N1C(=O)CC1CC1 (mixture of isomers)	-2	-6	3.2
COc1ccc(S(=O)(=O)N[C@H]2CC[C@@H](CCn3cc(-c4ccccc4F)nn3)O[C@H]2CO)cc1	-1	5	-6.0
CN(C)c1ccc2c(c1)[C@H]1C[C@H](CC(=O)NCc3ccc4c(c3)OCO4)O[C@@H](CO)[C@H]1O2	3	2	1.5
COC(=O)C[C@H]1CC[C@H]2[C@H](COc3ccc(NC(=O)c4cnccn4)cc3C(=O)N2C)O1	-1	2	-2.4
N#C[C@H]1[C@@H](c2ccccc2C2=CCCC2)[C@H](CO)N1C(=O)Cc1ccncc1	-7	-12	4.8
COCCN(C[C@H]1N[C@H](CO)[C@H]1c1ccc(-c2ccc(F)cc2)cc1)C(C)=O	2	4	-1.2

Nothing new here: entries from further up.
SMILES	DUX4 txn inh	DUX4 txn inh difference	DUX4 txn inh control
CC(C)NC(=O)N1CC(=O)N2[C@H](C1)[C@@H](c1ccc(C#CCN(C)C)cc1)[C@@H]2CO	12	6	5.9
COC(=O)C[C@@H]1CC[C@@H]2[C@@H](COc3ccc(NC(=O)c4cscn4)cc3C(=O)N2C)O1	-2	2	-3.7
COc1cccc(CN(C)C[C@H]2OCc3cnnn3CCCC(=O)N([C@@H](C)CO)C[C@H]2C)c1	-2	-6	4.1
O=C(NCCc1ccncc1)[C@H]1N[C@H]2c3ccc(/C=C/c4ccccc4)c(=O)n3C[C@H]2[C@@H]1CO	0	-1	0.9
COc1cccc(CN(C)C[C@@H]2OCc3cnnn3CCCC(=O)N([C@@H](C)CO)C[C@@H]2C)c1	-5	-4	-1.0
COc1cccc(-c2ccccc2[C@H]2[C@@H](C#N)N(C(=O)Cc3ccccc3)[C@@H]2CO)c1	1	10	-8.7
